High-throughput results deposited in PubChem by National Center for Advancing Translational Sciences (NCATS).
Rango dissoc inh = qHTS Assay for Inhibitors of RanGTP induced Rango (Ran-regulated importin-beta cargo) - Importin beta complex dissociation; Snurportin-1 (Homo sapiens) + GTP-binding nuclear protein Ran (Homo sapiens) + Importin …; Biochemical FRET Rango-importin beta, RanGTP-induced dissociation; Potency, µM (doses to about 46.1 µM), without a hit: top-dose activity change, negative = inhibition; hit rate 0.071% among 340,000; AID 540253, 2011; active means falling FRET ratio curve, often poorly fitted, with flat reads before Ran was added; inconclusive means other falling curves, or compound fluorescence or quenching; inactive means flat or rising ratio curve;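 further: potency means the concentration at half of the fitted maximal effect; % of control where 0% means no effect; nearly all actives have a fitted effect of over 45% in size; -100% = wells without RanGTP and RCC1; the record marks most hits as doubtful in a second field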
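Compounds preincubate 5 min with complex of recombinant Rango and importin beta in PBS with 1 mM DTT. Ran (0.6 uM) loaded with 2 mM GTP plus 0.2 uM RCC1 starts dissociation; FRET is recorded 45 min later.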
Rango complex inh = qHTS Assay for Inhibitors of Rango (Ran-regulated importin-beta cargo) - Importin beta complex formation; hit rate 0.031% among 340,000; Potency, µM (top dose mostly 92.2 µM), for the others: at the highest dose inhibition of complex formation; Rango CFP/YFP FRET sensor + importin beta, 45 min; AID 540263, 2011; active = rising FRET ratio curve, often small or poorly fitted; inconclusive = mostly compound fluorescence or quenching in the first reads; inactive = flat curves in all reads;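 further: potency means the concentration at half of the fitted maximal effect; 0% = DMSO wells and 100% = buffer wells lacking importin beta; nearly all actives have a fitted effect of over 15% in size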
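FRET biosensor Rango (snurportin 1 IBB between N-terminal EYFP and C-terminal Cerulean), 50 nM in PBS/1 mM DTT/0.02% Tween-20/0.1% BSA, preincubated 5 min RT with compound; 0.125 microM importin beta added, 45 min RT, CFP/YFP FRET ratio read.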
miR-21 FLuc = qHTS Assay for Modulators of miRNAs and/orActivators of miR-21; 340,000 tested, under 10 active; HeLa miR-21 FLuc reporter, luciferase, 48 h; AID 2288, 2010; Potency, µM (doses to about 38.3 µM), inactives show at the highest dose reporter change, positive = more light; active = well fitted rising curve with a large enough effect; inconclusive = small, poorly fitted or top-dose-only effect; inactive = no such curve, though single readings can be large or run the other way;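 further: % of control where 0% means no effect; miR-21 action dims this reporter so a rising signal means less miR-21 action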
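HeLa cells endogenously expressing miR-21, stably carrying CMV-driven firefly luciferase with a downstream miR-21 binding site, 2000 cells/well. Titrations up to approximately 40 uM, 48 hours; luciferase luminescence read.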
GLA inh pH 4.5 = qHTS Assay for Inhibitors of Human alpha-Galactosidase at pH 4.5. 230,000 tested, under 10 active. Alpha-galactosidase A (Homo sapiens), P06280. purified enzyme, 4-MU-alpha-Gal fluorescence, pH 4.5. AID 1467, 2008. activity change, negative = inhibition, % at 105 µM; inconclusive = small, poorly fitted or top-dose-only inhibition, or a rising curve; inactive = flat fitted curve, though single readings scatter; no compound was filed as active;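 further: 0% = full activity with enzyme and -100% = basal without enzyme; dose as in the result columns while the protocol names 77 µM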
Target sequence (P06280 whole entry, looked up): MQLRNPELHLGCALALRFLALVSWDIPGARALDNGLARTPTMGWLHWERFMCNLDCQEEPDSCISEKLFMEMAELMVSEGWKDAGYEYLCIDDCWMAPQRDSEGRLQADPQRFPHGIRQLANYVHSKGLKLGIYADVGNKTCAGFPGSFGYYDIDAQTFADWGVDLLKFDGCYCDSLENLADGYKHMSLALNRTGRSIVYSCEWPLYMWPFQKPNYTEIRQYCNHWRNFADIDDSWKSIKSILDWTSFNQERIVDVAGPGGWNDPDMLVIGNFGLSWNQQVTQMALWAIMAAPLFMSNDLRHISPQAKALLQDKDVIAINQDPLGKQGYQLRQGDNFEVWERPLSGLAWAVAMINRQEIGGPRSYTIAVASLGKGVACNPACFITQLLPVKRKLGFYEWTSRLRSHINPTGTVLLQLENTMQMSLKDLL
* marks the source's active call; other numbers are inactive results; u = inconclusive; x = not tested or not shown.

Values run as follows: Rango dissoc inh	Rango complex inh	miR-21 FLuc	GLA inh pH 4.5
O=C(c1cc(=O)[nH]c2ccccc12)N1CCN(c2ccccc2)CC1
    -10%	0.2%	-5%	1
O=C(Cc1ccccc1)NN=Cc1ccccc1
    6%	-0.2%	x	x
Cc1nc(N2CCN(C)CC2)[nH]c(=O)c1Cc1cccc2ccccc12
    0%	-0.6%	-5%	-11
CCC(=O)c1ccc(N2CCN(C(=O)c3cccc(F)c3)CC2)c(F)c1
    10%	1.0%	3%	-15
COc1ccc(CCNC(=O)c2cc(S(=O)(=O)N(C)C)ccc2N2CCCC2)cc1
    1%	4.7%	0%	x
CCN(CC)C(=O)CSc1nsc(SCC(=O)N(CC)CC)c1C#N
    0%	1.3%	-2%	3
O=c1c2[nH]c3cccc(Cl)c3c2ncn1Cc1ccncc1
    -6%	2.4%	-16%	3
COCC(C)n1c(C)cc(C(=O)COC(=O)CN=C2NS(=O)(=O)c3ccccc32)c1C (centres undefined)
    -7%	2.1%	-3%	5
CCOCCCn1c(=S)[nH]c2cc(C(=O)N3CCOCC3)ccc2c1=O
    2%	0.9%	-3%	-1
O=C(NCc1cccs1)C1CC(=O)N(C2CCCC2)C1 (centres undefined)
    21%	-5.5%	-3%	5

Values run as follows: Rango dissoc inh	Rango complex inh	miR-21 FLuc	GLA inh pH 4.5
COc1cc(Br)c(CC(=O)NNC(=O)c2ccc(F)cc2)cc1OC
    12%	0.3%	x	x
CCOc1ccc(NC(=O)CN(C)C(=O)c2ccc(C)o2)cc1OCC
    23%	-0.4%	0%	x
O=C(COC(=O)c1cc(Cl)ccc1O)NNC(=O)c1ccccc1F
    2%	-0.7%	x	x
O=C(Cc1cc(=O)[nH]c(=O)[nH]1)NCc1ccccc1
    -3%	u	0%	-5
Cc1ccc(CSc2nnc3nc(C)cc(C)n23)cc1
    13%	-1.5%	-16%	3
O=C1Nc2ccc(F)cc2C12OCCO2
    13%	-0.1%	-1%	x
Cc1[nH]c(=O)[nH]c(=O)c1S(=O)(=O)Nc1ccc(F)c([N+](=O)[O-])c1
    u	-0.4%	1%	x
Cc1ccc(OCC(=O)NCC(=O)Nc2ccc(F)c(F)c2F)c([N+](=O)[O-])n1
    -5%	-1.9%	-5%	1
COc1ccc(C(C)NC(=O)C23CC4CC(CC(C4)C2)C3)cc1 (centres undefined)
    1%	-4.4%	-1%	x
O=C(/C=C/c1ccco1)c1ccc(O)cc1
    x	x	-37%	7

Values run as follows: Rango dissoc inh	Rango complex inh	miR-21 FLuc	GLA inh pH 4.5
COc1cc2cnc(-c3ccccc3)c(-c3ccc([N+](=O)[O-])cc3)c2cc1OC
    -1%	-3.0%	x	x
COc1ccc(-c2oc3ccc(-c4ccc(OC)nc4)cc3c2C#CC2(O)CCCCC2)cc1
    u	-0.1%	2%	x
O=C(Nc1nc(-c2cccs2)c(C(=O)C(F)(F)F)s1)c1ccco1
    u	u	8%	-5
COC(C[C@@H]1O[C@H]1[C@H](O)COCc1ccccc1)OC
    6%	-0.1%	0%	0
COC(=O)C1=CO[C@@H](O[C@@H]2O[C@H](CO)[C@@H](O)[C@H](O)[C@H]2O)C2C1CC(O)O[C@H]2C (some centres undefined)
    5%	2.8%	x	x
CCn1c(SCc2ccc(OC)cc2)nnc1-c1ccncc1
    20%	-2.4%	-3%	0
COc1ccccc1OCC(=O)OCC(=O)Nc1sccc1C(N)=O
    u	-0.7%	-8%	4
Cc1ccc(/C=c2/sc3nnc(-c4ccccc4Cl)n3c2=O)o1
    -11%	-4.9%	-3%	1
COC(=O)c1ccc(OC(=O)N2CCOCC2)cc1
    -3%	3.6%	-4%	x
CCc1ccc(OCC(=O)N2CCc3ccccc32)cc1
    1%	-2.4%	-85%	x

Values run as follows: Rango dissoc inh	Rango complex inh	miR-21 FLuc	GLA inh pH 4.5
Cc1cc(/C([O-])=C(/C(=S)Nc2ccc(F)cc2)[n+]2ccccc2)c(C)n1-c1ccc(F)cc1
    5%	-0.8%	-17%	1
Cc1c(C(=O)Nc2cc(F)ccc2F)sc2nc3n(c(=O)c12)CCCCC3
    -13%	-1.2%	-26%	x
CN(C)c1ccnc2sc3c(=O)n(Cc4ccccc4)cnc3c12
    -1%	-0.5%	18%	9
Cc1ccnc(NS(=O)(=O)Cc2ccccc2)c1
    -5%	-1.0%	-8%	8
Cc1nc(NC(=O)c2ccc(F)cc2)sc1C(=O)Nc1ccc2c(c1)CCC2
    -18%	-1.6%	2%	-2
N#C/C(=C\c1ccncc1)c1ccccn1
    -8%	3.3%	12%	x
CCOC(=O)c1cc2c(=O)n3ccccc3nc2n(Cc2ccco2)c1=NC(=O)c1cccnc1
    u	-6.1%	-2%	0
Cc1cnc(C(=O)N2CCCC(N3CCN(c4ccccc4F)CC3)C2)cn1 (centres undefined)
    -13%	0.0%	-6%	x
COc1cc(SC)ccc1C(=O)Nc1ccc2ncccc2c1
    15%	-1.2%	-57%	x
CC1CN(CC(=O)c2c(N)n(Cc3ccccc3)c(=O)n(C)c2=O)CC(C)O1 (centres undefined)
    5%	1.4%	-3%	-5

Values run as follows: Rango dissoc inh	Rango complex inh	miR-21 FLuc	GLA inh pH 4.5
Nc1c(C(=O)c2ccccc2)sc2c1c(=O)[nH]c(=O)n2-c1ccccc1
    16%	-1.6%	-13%	-8
CN1CCN(C(=O)c2cnn(-c3ccccc3)c2NC(=O)c2ccccc2Br)CC1
    u	u	1%	x
CC(C)[C@H](NC(=O)c1ccco1)C(=O)OCC(=O)Nc1ccc(Cl)c(S(=O)(=O)N(C)C)c1
    -18%	0.3%	0%	3
O=C(c1ccc2c(c1)OCO2)N1CCN(c2ncccn2)CC1
    -5%	0.1%	-3%	-3
Cc1cccc(C)c1NC(=O)C(NC(=O)c1ccccn1)c1ccccc1[N+](=O)[O-] (centres undefined)
    -7%	4.1%	-3%	6
Cc1ccc(-c2csc(NC(=O)CN3CCC(C(N)=O)CC3)n2)cc1
    -11%	-3.3%	-2%	x
Cn1cccc1CC(=O)N/N=C/c1ccc(Cl)c([N+](=O)[O-])c1
    0%	-3.9%	2%	8
COCCNC(=S)Nc1ccc([N+](=O)[O-])cc1C
    -7%	0.0%	-1%	3
CCOC(=O)C1CCN(S(=O)(=O)c2ccc(OC)c(Cl)c2Cl)CC1
    39%	-3.2%	-13%	-5
CCCNC(=O)Cn1nc(C(F)(F)F)cc1C
    -3%	0.2%	3%	13

Values run as follows: Rango dissoc inh	Rango complex inh	miR-21 FLuc	GLA inh pH 4.5
O=C(O)C(Sc1ccncn1)c1ccccc1 (centres undefined)
    2%	-3.4%	-2%	3
CCC1COCCS(=O)(=O)N1Cc1ccc(C)cc1 (centres undefined)
    17%	-2.8%	1%	x
COc1ccc(CN2CCN(C(=O)CC(C)C)CC2)c(OC)c1OC
    -6%	-2.5%	-4%	3
Cc1cc(N2CC34C=CC(O3)C(C(=O)O)C4C2=O)no1 (centres undefined)
    1%	-1.1%	2%	0
CN(C)/C=C/C(=O)c1ccccc1F
    -4%	u	-14%	2
COc1cccc(OC)c1C(=O)N1CCN(S(=O)(=O)c2ccccc2)CC1
    -7%	-3.0%	0%	5
CCOc1cc2c(cc1O)C(=NO)CC1C2CCC2(C)C(O)CCC12 (centres undefined)
    -8%	3.2%	x	x
Cc1nnc(NC(=O)c2oc3c(ccc4ccccc43)c2C)s1
    -4%	-4.7%	0%	4
COc1cc(NCC(=O)Nc2cccc(S(=O)(=O)N3CCCCC3)c2)cc(OC)c1OC
    -26%	5.4%	x	x
Cc1nc2ccc(NC(=O)N3CCC(c4ccccc4)C3)cc2nc1C (centres undefined)
    2%	2.8%	-13%	6

Values run as follows: Rango dissoc inh	Rango complex inh	miR-21 FLuc	GLA inh pH 4.5
Cc1ccc(C(C(=O)NCc2ccccc2)N(Cc2cccs2)C(=O)c2ccc3c(c2)OCCO3)cc1 (centres undefined)
    -14%	-2.0%	28%	-15
COc1ccc(/C=C/C(=O)c2cc(Br)ccc2O)cc1OC
    -9%	-3.1%	-2%	-5
CCOC(=O)c1c(CN2CCN(c3ccccc3)CC2)oc2ccc(O)cc12
    5%	5.6%	0%	3
COc1ccccc1NC(C)=O
    0%	-1.1%	-1%	-1
CC(=O)NC(=O)Nc1sc(=S)n(C)c1C
    0%	-1.8%	1%	3
Cc1ccccc1-n1c(SCC(=O)N/N=C/c2sccc2C)nc2ccccc2c1=O
    -6%	-2.4%	-8%	0
CC(=O)c1ccccc1NC(=O)CSc1nnc2ccccn12
    x	x	-23%	2
O=C(c1ccccc1Cc1ccccc1)N1CCN(S(=O)(=O)c2ccccc2)CC1
    5%	-0.9%	1%	x
O=C(NCc1ccncc1)c1ccc(NS(=O)(=O)c2ccccc2)cc1
    -6%	-0.1%	x	x
CCC(C)(C)C(=O)Nc1cc([N+](=O)[O-])ccc1Cl
    -22%	-0.1%	-8%	-1

Values run as follows: Rango dissoc inh	Rango complex inh	miR-21 FLuc	GLA inh pH 4.5
COc1ccc(C(C)(C)C)cc1NC(=O)c1c(C)noc1C
    -3%	-3.6%	1%	-5
Cc1ccc(O)c(NC(=O)c2cc(-c3ccccc3Cl)on2)c1
    11%	1.9%	-57%	x
O=C(CCCCCn1c(SCc2ccncc2)nc2ccccc2c1=O)NCc1ccco1
    -4%	-2.4%	-10%	-2
O=C(CCCN1C(=O)c2ccccc2C1=O)Nc1sc2c(c1C(=O)NCc1ccco1)CCC2
    -2%	1.8%	-3%	-9
Cn1c2ccccc2c(=O)c2ccc(C#Cc3ccc(N)cc3)cc21
    u	u	-29%	x
CCC(CC)=NNc1cccc([N+](=O)[O-])c1
    -16%	3.0%	-2%	8
CC(C)CC(=O)NC(Nc1ccccc1F)C(Cl)(Cl)Cl (centres undefined)
    1%	5.5%	-2%	1
CCOC(=O)c1ccc(NC(=O)COc2ccccc2CNC2CCCC2)cc1
    5%	-1.2%	14%	4
CC(C)(C)NS(=O)(=O)c1ccc(NC(=O)C2CCCCC2)cc1
    -7%	1.3%	-14%	-8
Cc1nn(-c2nc3ccccc3s2)c(C)c1Oc1ccccc1O
    2%	1.6%	-9%	-4

Values run as follows: Rango dissoc inh	Rango complex inh	miR-21 FLuc	GLA inh pH 4.5
COc1ccccc1Nc1nnc(SCC(=O)NC2CCCC2)s1
    1%	-3.6%	x	x
CC(C)N(C(=O)[C@H]1C[C@H](CC(=O)NCCC2=CCCCC2)C(=O)N2CCc3c([nH]c4cc(-c5ccco5)ccc34)[C@]12C)C(C)C
    -10%	-2.0%	x	x
CC1=C(C(=O)OC(C)C)C(c2ccc(Cl)cc2)n2c(s/c(=C\c3ccc(OCC(=O)O)cc3)c2=O)=N1 (centres undefined)
    u	u	0%	x
C=CCN(CC=C)CCOc1ccc(C)cc1[N+](=O)[O-]
    -8%	3.4%	-44%	-11
O=C(CSc1ccc2nnc(CCNC(=O)c3ccccc3)n2n1)NCCc1ccccc1
    4%	3.9%	-5%	x
CCc1ccc(N2CC(C(=O)N/N=C/c3ccccc3)CC2=O)cc1 (centres undefined)
    17%	2.9%	x	x
C=CCn1c(Sc2ncc([N+](=O)[O-])s2)n[nH]c1=O
    0%	u	u	-3
O=C(NC1CCCC1)c1ccc(CN2CCOCC2)cc1
    4%	-0.7%	-17%	4
O=C(CN1CCN(S(=O)(=O)c2ccccc2)CC1)N1CCCCC1
    -8%	-0.1%	x	x
COC(=O)C1CCN(CC(=O)Nc2ccc3c(c2)OCCO3)CC1
    3%	7.1%	x	x
Cc1ccc(/C=C/c2nnc(-c3cccs3)o2)cc1
    20%	2.9%	-46%	-1

An excerpt (hit frequency here may not be typical).
